High-throughput results (PubChem BioAssay)
RanGTP-Imp inh – disruptors of Ran-importin-beta complex formation – biochemical, FRET, CFP-Ran, YFP-importin-beta, homogeneous, primary screen; inhibition, % (test concentration not listed); hit rate 1.1% among 300,000; cell-free CFP-Ran/YFP-importin-beta FRET ratio;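 active means most replicates above 15%; inconclusive means exactly half above 15%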;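 further: 0% = DMSO wells and 100% = Ran loaded with GDP instead of GTP; wells of about 40 µL received 100 nL stock; the first replicate is given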
Calb FLC – affects C. albicans growth with fluconazole; C. albicans CaCi-2 (fluconazole-resistant clinical isolate) + fluconazole, Alamar Blue growth, 48 h; growth inhibition, % (concentration not given with the values); hit rate 0.57% among 300,000;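 active means most replicates above 75%; inconclusive means exactly half above 75%; inactive means most below 75%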;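 further: all wells also contain fluconazole at 8 µg/ml as a sub-toxic cotreatment; 0% = median of DMSO wells and 100% = median of geldanamycin control wells; wells of about 8 µL received 7.5 nL stock; the first replicate is given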
HNF4A DNA FP – change in binding of human HNF4 alpha to DNA; P41235; HNF4a-FITC DNA binding, fluorescence polarization, 1 h; activity change, % at 10 µM; hit rate 0.3% among 360,000; AID 1224865; in the data active means activity change above about 30%, passing the limit was not always enough;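 further: controls were the assay level and a saturating level of protein; the project sought stronger binding though the title names inhibitors; some compounds called inactive have numbers as strong as hits; positive values seem to mean higher polarization but the record does not say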
B2AR ag – activates human beta-2 adrenergic receptor causing internalization. P07550. Am2.2-beta2AR cells, FAP receptor internalization, flow cytometry; reference of the scale not given here. response, % (no concentration beside the values). hit rate 0.43% among 340,000. AID 504454;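 active means response above a set limit, near 3 SD of response in nonfluorescent compounds, cut at about 42% in these data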;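 further: stock transfer was 100 nL into about 11 µL; a reference agonist was the positive control; negative values mostly stem from fluorescent compounds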
LANA-H2B inh – blocks KSHV LANA binding to histone H2A/H2B; inhibition, % (concentration not given with the values); hit rate 0.6% among 320,000; cell-free LANA-H2A/H2B peptide, fluorescence polarization; in the data active means inhibition mostly above about 10%, no sharp cut-off; inactive means mostly below about 6.7%;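 further: stock transfer was 7.5 nL into about 10 µL; 0% = median of vehicle wells and 100% = median of positive control wells; one replicate is shown; the record names a cut of 25% in any replicate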
Target sequence (Q9QR71 whole entry, looked up): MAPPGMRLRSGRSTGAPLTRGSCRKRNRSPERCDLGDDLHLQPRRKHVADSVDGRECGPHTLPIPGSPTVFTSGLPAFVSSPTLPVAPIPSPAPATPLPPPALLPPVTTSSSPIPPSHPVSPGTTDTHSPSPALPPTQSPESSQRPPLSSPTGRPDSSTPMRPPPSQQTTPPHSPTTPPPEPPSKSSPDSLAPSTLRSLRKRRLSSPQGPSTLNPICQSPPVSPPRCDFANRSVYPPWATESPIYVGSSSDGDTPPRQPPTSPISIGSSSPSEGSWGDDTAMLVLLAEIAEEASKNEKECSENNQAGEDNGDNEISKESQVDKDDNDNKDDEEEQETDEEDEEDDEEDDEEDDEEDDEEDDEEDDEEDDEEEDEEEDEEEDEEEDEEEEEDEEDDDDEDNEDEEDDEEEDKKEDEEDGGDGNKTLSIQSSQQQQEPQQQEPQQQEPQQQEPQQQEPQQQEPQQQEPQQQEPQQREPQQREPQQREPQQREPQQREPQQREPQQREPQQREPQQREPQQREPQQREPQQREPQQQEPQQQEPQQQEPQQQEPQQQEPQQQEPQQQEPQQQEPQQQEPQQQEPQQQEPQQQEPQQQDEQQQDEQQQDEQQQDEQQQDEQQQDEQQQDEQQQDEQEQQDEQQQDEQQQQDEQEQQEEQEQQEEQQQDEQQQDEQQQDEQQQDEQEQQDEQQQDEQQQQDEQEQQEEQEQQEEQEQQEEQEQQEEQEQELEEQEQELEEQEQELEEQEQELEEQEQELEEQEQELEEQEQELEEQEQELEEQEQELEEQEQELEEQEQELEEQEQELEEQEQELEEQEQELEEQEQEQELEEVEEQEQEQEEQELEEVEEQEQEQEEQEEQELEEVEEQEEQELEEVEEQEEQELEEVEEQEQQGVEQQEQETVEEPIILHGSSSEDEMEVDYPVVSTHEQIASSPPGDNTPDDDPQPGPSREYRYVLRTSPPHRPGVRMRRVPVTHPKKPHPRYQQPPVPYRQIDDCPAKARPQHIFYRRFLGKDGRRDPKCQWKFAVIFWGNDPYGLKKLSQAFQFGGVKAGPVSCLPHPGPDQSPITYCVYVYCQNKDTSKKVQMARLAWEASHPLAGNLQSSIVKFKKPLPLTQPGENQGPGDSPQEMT
ALR inh – blocks human ALR sulfhydryl oxidase activity | P55789 | hit rate 3.8% among 290,000 | inhibition, % (concentration not given with the values) | purified ALR, DTT oxidation, H2O2 HRP-luminol luminescence;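 active means mean and each replicate at 75% or more; inconclusive means only one of the two met; inactive means neither met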;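 further: stock transfer was 7.5 nL into about 7.5 µL; 0% = neutral wells and 100% = wells with inactivated enzyme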
Vif A3G – HIV-1 Vif–A3G interaction blockers – biochemical, TR-FRET, GST-Vif 1-94, biotin-A3G peptide, dose response retest, primary screen (AID 1117319). TR-FRET GST-Vif / biotin-A3G peptide binding; higher % means a stronger effect; test concentration not given here; strong numbers were not always called active. inhibition, %; hits with a dose series show IC50 in µM. hit rate 0.57% among 260,000;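 active means above the screen mean plus three standard deviations and confirmed in dose response; inconclusive means results disagree or hit not tested in dose response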;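 further: Vif residues 1-94 fused to GST binding biotinylated APOBEC3G peptide 110-148; 0% = full assay without inhibitor and 100% = GST in place of GST-Vif; retest series ran down from 100 µM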
An asterisk follows results filed as active; ? = inconclusive; nt = not tested or not shown.

Order of values – RanGTP-Imp inh, Calb FLC, HNF4A DNA FP, B2AR ag, LANA-H2B inh, ALR inh, Vif A3G
- COc1ccc(-c2cn(CCN)c(-c3ccncc3)n2)cc1
    nt, nt, -4.1, 2, 1.8, 0, nt
- C/C(CC(=O)NC(C)(C)C)=N\NC(=O)COc1ccc(C)cc1Br
    -0.1, -5, 0.4, -10, 3.1, 1, 5%
- Cc1cccc(C(=O)N2CCC(=O)N(C(COCc3ccc(Cl)cc3)Cc3ccccc3)CC2)c1 (centres undefined)
    ?, 10, 1.4, -15, 3.2, -7, -7%
- C=CCOc1c(Br)cc(/C=N/NC(=O)Cc2ccc(C(F)(F)F)cc2[N+](=O)[O-])cc1OC
    -4.4, 4, 0.7, -6, 8.2, -9, 11%
- O=C(Nc1ncc(Cc2ccccc2)s1)C1CCCO1 (centres undefined)
    0.0, -3, 0.0, -2, 1.1, 0, -8%
- CC(=O)c1cccc(NC(=O)C2=CN3CCS(=O)(=O)N=C3C=C2)c1
    nt, nt, -0.4, -5, 4.5, 3, 23%
- O=C(NCc1ccccc1)C(c1ccco1)N(C(=O)c1ccccn1)c1ccccc1 (centres undefined)
    -2.3, -2, 0.1, 1, -0.6, 1, 7%
- Cc1ccc(C(=O)NCCCN2CCN(CCCNC(=O)c3ccc(C)cc3)CC2)cc1
    -0.9, -2, 7.4, 6, 3.5, -9, nt
- C/C=C(\C)C(=O)NCCN1C2=NC[C@H](C)N2C[C@@H]1Cc1ccc(OC)cc1
    -1.8, -1, 5.3, 12, 0.9, -20, nt
- Cc1c(C(=O)OC2CCCC2C)[nH]c2c1C(=O)CCC2 (centres undefined)
    -1.5, 7, 0.1, -10, 3.0, 16, 11%
- O=C(NCc1ccccc1)c1ccc2ccccc2n1
    0.4, -20, 0.3, -1, -1.1, nt, nt
- CCn1c(C(C)NC(=O)c2ccc(C)cc2)n[nH]c1=S (centres undefined)
    0.1, -8, 0.3, 1, 1.3, 41, -7%
- Cc1ccc(NC(=O)CN2C(=O)C(=O)N(C3CCCC3)C2=O)cc1Cl
    nt, nt, 1.8, 2, -0.8, 1, -7%
- Cc1cc2nc3c(=O)n(CCc4ccccc4)c(=O)[nH]c3nc2cc1N
    -257, -1, -113, 8, 16, -4, 18%
- COc1ccc(-c2nnnn2C)cc1S(=O)(=O)Nc1ccc(C)cc1C
    1.4, -3, -1.1, -11, -1.4, 5, nt
- CC(C)(C)NC(=O)NC(=O)COC(=O)C1(C)CC1(Cl)Cl (centres undefined)
    1.5, 9, -0.1, 8, -4.2, 9, nt
- Cn1cc(-c2nnnn2-c2ccccc2)c(=O)c2ccccc21
    3.9, -3, -1.8, -18, -3.7, -6, 3%
- CNC(=O)/C(=C\c1ccco1)NC(=O)c1ccco1
    -1.8, -5, -79, -4, -1.4, nt, nt
- CC(C)=CCN1CCN(Cc2cc(F)ccc2-n2nc(C)cc2C)CC1CCO (centres undefined)
    4.6, 6, 1.6, 1, -1.5, -12, 8%
- COc1ccc(NC(=O)COC(=O)CC2CC3CCC2C3)c([N+](=O)[O-])c1 (centres undefined)
    -1.1, -8, 1.6, 15, -0.3, nt, nt
- O=C(CSc1nc2ncc(Br)cc2[nH]1)c1ccc([N+](=O)[O-])cc1
    -4.1, -2, 1.8, 5, 2.1, ?, nt
- COc1ccccc1CCNC(=O)CN1C(=O)NC2(CCCC2)C1=O
    nt, 1, 1.6, 6, -6.3, -2, nt
- CCOC(=O)c1[nH]c(C)c(/C(O)=C2\C(=O)C(=O)N(CCN(C)C)C2c2ccncc2)c1C (centres undefined)
    5.0, 12, 3.1, -3, -4.8, 2, 2%
- CC/C(=N\NC(=O)c1ccc(Br)cc1)c1ccccc1
    -2.1, 32, 1.4, -8, -0.4, 0, -1%
- O=C(Oc1ccccc1C(=O)N1CCOCC1)c1ccc(F)cc1
    -1.6, -3, 0.0, 6, -3.6, 0, -11%
- COc1ccc(C(=O)NNC(=O)c2cc3ccccc3cc2O)cc1
    -2.2, 1, -1.8, 6, -0.1, 0, nt
- O=c1c2c3c(sc2nc2n1CCCCC2)CCCCC3
    -1.3, -38, -1.4, -10, -7.4, 2, 1%
- COc1ccc(CN2CC(C(=O)NCc3cccc(OC)c3)CC2=O)cc1 (centres undefined)
    -2.1, -1, -1.2, 1, 2.7, -4, 6%
- Cc1ccc(-c2nnc(SCC(=O)Nc3sc(C)c(C)c3C#N)n2C)cc1
    -0.2, 4, 7.2, -9, 0.5, 2, nt
- NC(=O)N/N=C/c1cccc(OCc2ccc(F)cc2)c1
    2.7, 6, -3.4, -7, -5.5, 2, nt
- CCCCN1C(=O)C(=Nc2cccc3cnccc23)c2ccccc21
    4.2, -29, 0.3, 3, 2.5, 18, nt
- N=c1oc2ccc([N+](=O)[O-])cc2cc1C(=O)NCc1ccccc1
    3.4, 14, -1.9, 5, 0.3, 12, -14%
- C=CCn1c(SCC(=O)Nc2ccc(C)cc2C)nnc1-c1cccnc1
    6.5, -1, 0.8, -1, 1.4, 2, 21%
- O=C1C2CCCCN2C(=O)N1CCCCN1CCN(c2cccc(Br)c2)CC1 (centres undefined)
    1.9, -4, -0.6, 35, -3.8, 32, -5%
- CCCCC(=O)NC(NC(=O)CCCC)c1ccc(OCC(C)C)c(OC)c1
    1.7, 4, -0.5, -7, 2.1, 2, -2%
- Cc1nc(CNS(=O)(=O)c2ccc3c(c2)CCCC3)cs1
    3.8, -3, -2.4, 10, 2.0, -10, 17%
- CN(C(=O)COC(=O)c1ccc(F)c(S(=O)(=O)N2CCOCC2)c1)C1CCS(=O)(=O)C1 (centres undefined)
    3.9, -1, 5.6, -1, -5.6, -3, 0%
- CN(CCNS(=O)(=O)c1ccc2c(c1)oc(=O)n2C)Cc1ccccc1
    4.4, 3, -3.8, -23, -3.3, -18, 27%
- CCOc1ncccc1C(=O)NNC(=O)c1csc(N2CCOCC2)n1
    1.1, 0, -1.7, -5, -3.4, -2, 7%
- Cc1cc2cc(CNC(=O)NC3CCCCC3)ccc2[nH]1
    3.9, -11, -1.1, 2, -1.9, -4, 27%
- Cc1cccc(NC(=S)N=Nc2c(O)n(CN3CCOCC3)c3ccccc23)c1C
    nt, nt, 0.3, 9, 5.2, 3, nt
- O=C(NNc1nc2c(F)cc(F)cc2s1)c1ccccc1
    3.5, -7, 1.2, 9, 2.9, -1, nt
- Cc1ccc(NC(=O)C(=S)NCc2ccco2)cc1
    -1.1, -8, -0.6, 2, -0.3, nt, 0%
- O=C(Nc1nc2ccccc2c(=O)s1)c1ccc(F)cc1Cl
    3.0, -13, -1.0, 10, 1.2, 14, -42%
- COc1cccc(C2C3=C(N=c4s/c(=C\c5ccc(OCC(=O)O)cc5)c(=O)n42)c2ccccc2CC3)c1 (centres undefined)
    -10.0, 18, nt, nt, 3.5, -6, -6%
- CCOC(=O)CC(=O)CSc1nccc(-c2cccnc2)n1
    0.9, -3, 1.1, -9, -13, 72, -8%
- CCOC(=O)N1CCN(S(=O)(=O)CCNC(=O)c2cccc(OC)c2)CC1
    1.3, 15, 3.2, -17, 2.9, -8, 4%
- Cc1cc(C)n2nc(C(=O)N3CCCC(Nc4ccc(F)c(F)c4)C3)cc2n1 (centres undefined)
    -1.9, -1, 1.8, 4, -1.0, 4, nt
- Cc1ccc(C2Nc3ccc4ccccc4c3C3=C2C(=O)CC(C)(C)C3)o1 (centres undefined)
    -4.7, 0, -4.3, 4, -0.2, nt, -2%
- COc1ccccc1NC(=S)NC(=O)c1c(-c2ccccc2Cl)noc1C
    1.0, -5, 2.3, -4, 1.7, 0, 7%

(cont.)
Order of values – RanGTP-Imp inh, Calb FLC, HNF4A DNA FP, B2AR ag, LANA-H2B inh, ALR inh, Vif A3G
- Nc1nc2n(c1C(=O)c1ccccc1)CCC2
    5.9, 2, -0.5, 3, -4.2, -31, -1%
- COc1ccc(C(=O)NCCn2nc(C)cc2C)cc1OC1CCN(C(C)=O)CC1
    0.2, 17, 4.4, 4, 0.7, -3, -2%
- Cc1c(Cl)ccc2sc(N3CCN(C(=O)C4=COCCO4)CC3)nc12
    -4.5, 21, 0.0, -3, 3.8, -20, -3%
- CC1CCN(S(=O)(=O)c2ccc(NC(=O)CCN3C(=O)c4ccccc4C3=O)cc2)CC1
    3.0, -23, -0.2, -2, -2.9, -6, 11%
- N#CC1=C(N)Oc2cc(O)ccc2C1c1cccs1 (centres undefined)
    1.2, -1, 6.0, -1, -5.0, 31, -4%
- N#Cc1ccc(NC(=O)Cn2cnc(S(=O)(=O)N3CCCC3)c2)cc1
    6.9, 3, -1.3, 0, -0.9, -4, -11%
- COc1cc(C(=O)OCCNC(=O)c2cccnc2)cc(OC)c1OC
    nt, nt, -3.8, 11, -1.4, nt, -5%
- O=C(NCc1ccccn1)c1cc(S(=O)(=O)N2CCCCC2)ccc1Cl
    nt, nt, 4.1, -1, -0.7, -5, -2%
- Cc1ccc(NC(=O)COC(=O)C2CC3C=CC2C3)cc1S(=O)(=O)N1CCCCC1 (centres undefined)
    -3.0, -15, -0.4, 8, nt, nt, nt
- Cc1ccc(-c2nn(C)c(=O)c3ccccc23)cc1CNC(=O)Cn1nc(-c2ccccc2)c2ccccc2c1=O
    -2.5, 7, nt, nt, nt, nt, 1%
- CCOc1cc(/C=N/NC(=O)c2ccccc2OCc2ccc(F)cc2)ccc1O
    nt, nt, -1.1, 13, 1.7, 50, 4%
- Cc1ccc(NS(=O)(=O)c2ccc3c(c2)NC(=O)CO3)cc1C
    0.9, -3, 4.4, 3, nt, -2, nt
- Cc1csc2nc(O)c(C(=O)NC3CCCCC3C)c(=O)n12 (centres undefined)
    7.4, 12, -1.9, 4, -0.7, 3, 3%
- CCn1cc(C(=O)NCCOC)c(=O)c2ccc(C)nc21
    -4.4, 7, -4.4, 2, 1.1, 12, 0%
- CCOC(=O)/C(C#N)=C1/C=Cc2ccccc2N1CC
    3.7, -6, 4.2, -16, 0.6, 5, 2%
- Cc1csc(=Nc2cccnc2)n1CC1CCCCC1
    -0.7, -7, 0.5, 1, -2.5, 99*, 3%
- Cc1ccc(C(=O)COc2cc(O)c3c(=O)cc(-c4ccccc4)oc3c2)cc1
    1.7, 16, 3.6, 5, 4.2, 7, nt
- CC(C)N(C)C1CCN(S(=O)(=O)c2ccc(-c3ccc(=O)[nH]n3)s2)CC1
    1.6, 7, -0.5, -2, -0.2, -3, nt
- COc1ccccc1C(=O)Nc1nnc(SCC(=O)NCc2ccco2)s1
    0.1, 6, -0.3, -10, -1.2, -4, -4%
- O=S(=O)(c1cccc(-c2n[nH]c(=S)o2)c1)N1CCOCC1
    0.5, 4, 1.8, 2, -0.2, 50, 22%
- O=Cc1c(NCCCN2CCCC2=O)c2ccccc2[nH]c1=O
    -4.2, -4, 0.9, -2, 0.3, -4, nt
